Assay outcomes as filed in PubChem BioAssay.
gsp ag: gsp mutant agonism; AID 624287; gsp mutant cells, cAMP HTRF, 30 min; control for the full effect not named in the record; Potency, µM (series often up to 76.9 µM), inactives show at the highest dose activation (cAMP increase), hits mostly activators; actives 0.13% (n = 340,000); active = well fitted activation curve with a large enough effect; inconclusive = small, poorly fitted or top-dose-only effect, or another doubt; inactive = no such curve, though single readings can be large or run the other way; cell line not stated here;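 further: phosphodiesterase inhibitor Ro 20-1724 added with compounds to block cAMP breakdown; potency means the concentration at half of the fitted maximal effect; nearly all actives have a fitted effect of over 60% in size; about a fifth of the inactives were tested at one dose only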
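Cells stably selected in G418 were plated at 2000/well, grown 16-24 hr, then given compounds in DMSO with the PDE inhibitor […] (300 uM solution added) for 30 min at 37C; cAMP was read by HTRF.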
TRPV1 potentiator: enhances activation of the human vanilloid receptor TRPV1; Q8NER1; TRPV1-expressing cells, Fluo-8 calcium influx, capsaicin EC20 potentiation; host cell line not named in the record; control for the full effect not named in the record; potentiation, % at 8.33 µM; actives 0.02% (n = 320,000); AID 540277; active means potentiation above 80%; inconclusive means 30% to 80%; inactive means below 30%; further: 0% is about no effect
Target sequence (Q8NER1 whole entry, looked up): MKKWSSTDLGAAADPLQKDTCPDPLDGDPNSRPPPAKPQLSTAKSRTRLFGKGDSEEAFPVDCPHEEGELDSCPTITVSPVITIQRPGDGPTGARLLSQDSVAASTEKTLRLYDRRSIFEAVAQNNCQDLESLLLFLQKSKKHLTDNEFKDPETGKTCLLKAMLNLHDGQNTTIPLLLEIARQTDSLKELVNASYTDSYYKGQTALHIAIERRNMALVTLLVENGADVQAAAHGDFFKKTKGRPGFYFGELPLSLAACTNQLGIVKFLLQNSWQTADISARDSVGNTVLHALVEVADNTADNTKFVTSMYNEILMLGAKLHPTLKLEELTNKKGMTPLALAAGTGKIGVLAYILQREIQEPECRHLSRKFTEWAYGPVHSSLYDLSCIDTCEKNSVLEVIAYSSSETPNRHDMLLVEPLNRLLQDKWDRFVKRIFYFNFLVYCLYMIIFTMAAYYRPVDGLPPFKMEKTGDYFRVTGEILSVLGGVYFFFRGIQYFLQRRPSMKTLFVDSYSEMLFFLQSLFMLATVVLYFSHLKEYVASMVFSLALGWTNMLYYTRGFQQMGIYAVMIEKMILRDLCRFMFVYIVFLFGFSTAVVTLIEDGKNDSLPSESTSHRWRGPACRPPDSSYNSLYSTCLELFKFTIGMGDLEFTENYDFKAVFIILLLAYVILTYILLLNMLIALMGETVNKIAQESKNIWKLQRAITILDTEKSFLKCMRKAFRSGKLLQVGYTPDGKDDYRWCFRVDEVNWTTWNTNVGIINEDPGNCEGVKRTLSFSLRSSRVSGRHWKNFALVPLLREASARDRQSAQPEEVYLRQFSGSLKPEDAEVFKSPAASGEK
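TRPV1-expressing cells were cultured overnight at 35.5C and loaded with Fluo-8 calcium dye for 40 to 90 min at room temperature. After a 10 s baseline, compound was added and calcium influx was read kinetically for 3 min (ex 480/em 520 nm).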
Menin-MLL FL inh: inhibitors of human menin-MLL interaction, wild-type MLL peptide; Fluorescence polarization, fluorescein-MLL peptide displacement from menin; 290,000 tested, under 10 active; AID 1766; FP activity change, % at 61.4 µM; inconclusive = falling polarisation curve, or a change in total fluorescence; inactive = total fluorescence flat and polarisation flat or rising; no compound was filed as active; the % refers to the polarisation; negative = inhibition;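 further: % of control where 0% means no effect; inhibitors lower the polarisation; unlabelled MLL peptide was the positive control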
Sfp PPTase inh: inhibitors of Bacillus subtilis Sfp phosphopantetheinyl transferase. actives 3.5% (n = 310,000). Q9F4F7. AID 1490. Potency, µM, without a hit: max response, negative = inhibition, most hits filed as inhibitors. Biochemical Sfp PPTase activity, qHTS; active means well fitted inhibition curve with a large enough effect; inconclusive means small, poorly fitted or top-dose-only effect, or another doubt; inactive means no such curve, though single readings can be large or run the other way;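 further: the enzyme is Sfp with the accession as filed and its product quenches rhodamine fluorescence; potency means the concentration at half of the fitted maximal effect; 0% = enzyme reaction without inhibitor and -100% = no enzyme wells; top concentration of the series not given in the record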
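Fluorescence-quenching assay with 15 nM Sfp, 5 uM rhodamine-CoA and 12.5 uM BHQ-2-labelled ybbR peptide in pH 7.6 Hepes/MgCl2 buffer. Enzyme was pre-incubated with compound for 15 min at room temperature. Rate was taken from the 30-min fluorescence change (525/598 nm).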
gsp antagonist: gsp mutant antagonism. actives 0.4% (n = 340,000). gsp-mutant cells, cAMP HTRF, 30 min; control for the full effect not named in the record. Potency, µM (highest dose often 76.9 µM), inactives show top-dose activity change, negative = inhibition, usual class: inhibitors; active = falling curve of any shape with a large fitted effect; inconclusive = falling curve, mostly with a smaller effect; inactive = flat or rising curve; cell line not stated here;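 further: intracellular cAMP measured with PDE inhibitor Ro 20-1724 present during compound exposure; potency means the concentration at half of the fitted maximal effect; on the % scale 0 is the no-effect control and ±100 the full control effect; nearly all actives have a fitted effect of over 65% in size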
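Measurement of cellular cAMP by homogeneous time-resolved fluorescence following a 30 min compound exposure at 37C. The PDE inhibitor […] was present throughout; the assay buffer was DPBS with 0.05% BSA and 0.005% Tween 20.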
CtBP-E1A blk: CtBP/E1A binding inhibition; AlphaScreen GST-E1A/His-CtBP binding, 1536-well; hits give low values; control for the full effect not named in the record; activity change, % (no concentration beside the values); actives 0.49% (n = 340,000); in the data active means activity change below about -65%; inconclusive means about -30% to -65%; inactive means above about -30%; further: on the % scale 0 is the no-effect control and ±100 the full control effect; compound concentration not given in the record
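Homogeneous bead-based format: GST-tagged E1A captured on glutathione donor beads, His-tagged CtBP on nickel acceptor beads; compounds precede bead addition by 2 h at 37 °C.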
ClpP mod: qHTS Assay for Activators of ClpP. ATP-dependent Clp protease proteolytic subunit (Bacillus subtilis (strain 168)), P80244. purified B. subtilis ClpP, FRET peptide cleavage, 20 min. Potency, µM (doses to about 57.5 µM), for the others: at the highest dose activity change, negative = active. actives 1.9% (n = 340,000); active = well fitted falling curve with a large enough effect; inconclusive = small, poorly fitted or top-dose-only effect; inactive = no such curve, though single readings can be large or run the other way; further: potency means the concentration at half of the fitted maximal effect; the source files actives as falling curves though it sought activators and does not explain the sign; nearly all actives have a fitted effect of over 65% in size; many hits overshoot -100%
Target sequence (P80244 whole entry, looked up): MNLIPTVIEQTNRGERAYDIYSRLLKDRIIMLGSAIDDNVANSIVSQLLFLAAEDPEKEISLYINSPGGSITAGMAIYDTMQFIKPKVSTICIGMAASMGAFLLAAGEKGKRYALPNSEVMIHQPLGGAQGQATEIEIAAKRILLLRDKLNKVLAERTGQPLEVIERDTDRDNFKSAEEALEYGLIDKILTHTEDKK
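FRET quenching reversal measured ClpP activation: 10 microg/mL B. subtilis ClpP at pH 8 with the FRET-FV decapeptide, read at 430 nm after 320 nm excitation. The 20-min minus 0-min signal was scaled between DMSO/no-enzyme wells and ADEP (5.8 microM final).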
Numbers without * were called inactive; ? = inconclusive; . = not tested or not shown; & = joins results of further samples; [ ] = dose if it differs, or a comment.

SMILES | gsp ag | TRPV1 potentiator | Menin-MLL FL inh | Sfp PPTase inh | gsp antagonist | CtBP-E1A blk | ClpP mod
O=C(c1ccc(S(=O)(=O)N2CCOCC2)cc1)N(c1cccc(Cl)c1)C1C=CS(=O)(=O)C1 (centres undefined) | 2% | -7 | 5.4 | 16% | 7% | . | -0.4%
CSc1cccc(NC(=O)/C=C/c2ccc(Cl)cc2)c1 | 3% | -7 | -0.7 | 1% | ? | 11 | -5.4%
Cc1cc(C)cc(-n2cccc2/C=C2/C(=N)N3C(=NC2=O)SN=C3S(C)(=O)=O)c1 | -13%[15.4 µM] | 6 | ? | ? | -17% | -1 | .
CCOC(=O)NC(C(Cl)(Cl)Cl)S(=O)(=O)c1ccccc1 (centres undefined) | 10%[15.4 µM] | 8 | 7.1 | -1% | -4% | 8 | ?
CNS(=O)(=O)c1cn(CC(=O)NCc2ccc(F)cc2)cc1S(=O)(=O)NC | ? | -19 | 2.1 | 4% | 0% | . | -2.4%
CC(c1ccccc1)n1c(CCCO)nc2ccccc21 (centres undefined) | 6% | -36 | 1.1 | 4% | 5% | -4 | 1.7%
N/C(Cc1ccc(Cl)cc1Cl)=N\OC(=O)c1ccccc1F | ? | 1 | -2.7 | 9% | -3% | 19 | .
CCCN(C(=O)COC(=O)CCOc1ccc(C)cc1)c1c(N)n(Cc2ccccc2)c(=O)[nH]c1=O | 25% | 12 | . | . | 12% | -1 | -0.7%
COc1nc(Nc2ccc([N+](=O)[O-])cc2)nc(NC(C)C)n1 | -3% | -5 | -7.1 | -13% | -25% | -15 | 0.1%
Cc1ccc2nc(SCC(=O)c3cc(C)n(C)c3C)[nH]c2c1 | -6% | 1 | 1.4 | -15% | 5% | -9 | -0.5%
CC(=O)c1c(C)[nH]c(C(=O)OCC(=O)N2CC(=O)Nc3ccccc32)c1C | 22% | 9 | 4.7 | -2% | 7% | 0 | -21%
O=C(NCC(c1ccco1)N1CCN(c2ccc(F)cc2)CC1)c1ccc2c(c1)OCO2 (centres undefined) | -11%[15.4 µM] | 5 | . | . | -1% | -3 | .
CCn1c(C)nc2cc(C(=O)NNC(=O)Nc3cccc(Cl)c3)ccc21 | -3%[15.4 µM] | 6 | -1.8 | 25% | -8% | . | .
O=C(COC(=O)c1cccs1)NC1CCCC1 | -1% | -8 | 1.3 | 11% | 5% | 2 | .
Cc1ccccc1-c1nnc(NC(=O)c2cc3ccccc3oc2=O)s1 | . | 5 | -0.6 | 6% | . | . | .
CCCCn1cc(SCC(=O)O)c2ccccc21 | -4% | -11 | -0.4 | 15% | -26% | -1 | -24%
C[C@H](CO)N1C[C@H](C)[C@H](CN(C)C(=O)Nc2ccc3c(c2)OCCO3)OCc2cnnn2CCCC1=O | -6% | . | . | . | . | 0 | -2.4%
Cc1cc(C)n(-c2nnc3n2N=C(c2c[nH]c4ccccc24)CS3)n1 | 18% | -8 | 1.2 | -5% | 10% | 1 | -0.6%
C=CCn1c(NS(=O)(=O)c2ccccc2)c(S(=O)(=O)c2ccc(C)cc2)c2nc3ccccc3nc21 | ? | 13 | 6.5 | 40µM* | -10% | 0 | -1.4%
CCOC(=O)c1cc(C)sc1NC(=O)c1ccc(Cl)s1 | 5% | 5 | 2.0 | 3% | 2% | 14 | -11%
CCCCc1nc2ccccc2c(=O)n1NC(=O)c1c(O)c2c(n(CC(C)C)c1=O)CCCC2 | -18% | -19 | 1.8 | 10% | 3% | 0 | -4.5%
Cn1c(NCc2ccco2)nc2c1c(=O)n(Cc1ccc(Br)cc1)c(=O)n2C | -7% | -14 | -0.9 | 3% | -20% | -8 | 0.3%
COCCNC(=O)CSc1nc(-c2ccccc2)cs1 | -7% | 5 | 1.0 | 11% | -6% | 1 | -2.0%
CS(=O)(=O)N1CCC(C(=O)Nc2ccc(Cl)cc2Cl)CC1 | -21% | . | . | . | . | 5 | 0.1%
COc1ccc(N2C(=O)C(CC(=O)Nc3ccccc3)N(Cc3ccc(OC)c(OC)c3)C2=O)cc1 (centres undefined) | 24%[15.4 µM] | 7 | -0.8 | 12% | 1% | -1 | .
CCOC(=O)/C(C(N)=NCCCO)=C(/O)c1ccccc1 | -12% | -9 | -1.8 | 7% | -5% | -14 | -1.1%
Cc1ccc(C(c2nnnn2C2CCCC2)N2CCc3ccccc32)cc1 (centres undefined) | 36% | -5 | 4.3 | -6% | -3% | -21 | -4.3%
Cc1ccc(-n2c(C)cc(C(=O)CN3CCOCC3)c2C)cc1C | -3% | -18 | 4.5 | -1% | 7% | . | 2.6%
Cc1[nH]nc2c1C1(CCN(C(=O)c3ccccc3)CC1)C(C#N)=C(N)O2 | -4% | -6 | 5.7 | 7% | 3% | 2 | -0.7%
COc1ccccc1-n1c(C)cc(/C=C2/C(=N)N3C(=NC2=O)SN=C3S(C)(=O)=O)c1C | -2% | 11 | 7.8 | -15% | ? | -16 | .
COc1ccc(NC(=O)c2ccccc2NC(=O)c2ccco2)cc1 | -48%[inhibitor] | 0 | -3.1 | 4% | 5% | 11 | .
C=CC(=O)Nc1cccc(N(C)c2ccnc(Nc3ccc(N4CCN(C)CC4)cc3)n2)c1 | . | . | . | . | -21% | ? | -2.7%
CCc1ccccc1NC(=O)c1ccc(OCc2c(C)noc2C)cc1 | 11%[15.4 µM] | . | . | . | -11% | 6 | -0.9%
CCSCc1nnc(SCC(=O)Nc2cc(F)ccc2C)n1C | 13% | 4 | -0.3 | 17% | 7% | -14 | .
COCCN1C(=O)/C(=C/c2ccc(N3CCCC3)cc2C)SC1=S | -19% | 7 | ? | 9% | -3% | 0 | .
CC(C)OCCCn1c(SCC(=O)N2CCc3ccccc32)nc2ccccc2c1=O | 14%[15.4 µM] | -12 | 7.0 | -4% | -14% | 6 | -0.7%
CCC1CCCCN1C(=O)COc1c(Br)cc(Br)c2cccnc12 (centres undefined) | 30%[15.4 µM] | 5 | 2.3 | -16% | -23% | 7 | .
COc1ccc(CC(=O)N(C)Cc2ccc(OC(F)F)cc2)cc1S(=O)(=O)N1CCOCC1 | -48%[inhibitor] | . | . | . | -16% | . | -0.9%
NC(=O)COc1ccc2cc(-c3ccccc3)c(=O)oc2c1 | 18% | -11 | -6.8 | 1% | -16% | . | 4.0%
O=C(/C=C\Nc1ccc(S(=O)(=O)Nc2ncccn2)cc1)c1ccccc1 | 15%[15.4 µM] | 2 | -1.5 | 14% | -2% | 6 | .
CCOc1cc(/C=N/Nc2cc(C)nc3ccc(C)cc23)ccc1O | 13% | -4 | 0.1 | -1% | -27% | . | ?
Cc1ccc(S(=O)(=O)NNc2nnc(C)c(=O)[nH]2)cc1 | 7% | 4 | -3.2 | 5.6µM* | 11% | -5 | .
CCCCn1c(SCC(=O)Nc2ccc3c(c2)OCO3)nc2c1c(=O)n(C)c(=O)n2C | 47% | 24 | 1.2 | 10% | 4% | 3 | 6.3%
Cc1cccc(OCC(=O)N2CCN(S(C)(=O)=O)CC2)c1 | 12%[15.4 µM] | 2 | 0.9 | 14% | 14% | . | .
CN1C(=O)C(O)(C2COC(C)(C)CC2=O)c2ccccc21 (centres undefined) | 2% | 15 | 5.4 | -8% | 7% | 2 | 43%
COc1ccc(OC)c(NC(=O)Nc2ccc3[nH]ccc3c2)c1 | -29% | . | . | . | -27% | -7 | 1.4%
CCOc1ccc(Cc2nc(C)c(CC(=O)N3CCCCC3)c(=O)[nH]2)cc1 | -14% | 11 | -0.9 | 16% | 14% | -2 | 0.3%
Cc1ccc(C)c(NC(=O)Cc2nc(CCl)cs2)c1 | 18% | 0 | 4.1 | -12% | 1% | 4 | -1.1%
CCOC(=O)N1CCN(C(=O)c2ccc3c(c2)N(Cc2cccc(Cl)c2)C(=O)c2ccccc2S3=O)CC1 (centres undefined) | -20% | 4 | 5.8 | 5% | -25% | -14 | -1.7%&1.8%
CCCCn1nc(C(=O)Nc2ccc3c(c2)OCCO3)c2ccccc2c1=O | -43%[inhibitor] | 4 | . | . | ? | -2 | 0.2%
COc1cccc(/C=N/NC(=O)c2ccc(CN3c4cccc5cccc(c45)S3(=O)=O)cc2)c1 | -1% | 2 | 0.1 | 28% | 0% | -2 | ?
O=C(Nc1ccnn1C1CCN(CC(O)CO)CC1)C1CCCC1 (centres undefined) | -63%[inhibitor] | 2 | . | 7% | 10% | -5 | -1.1%
Cc1oc2cc3oc(=O)c(CCC(=O)NCCC(=O)O)c(C)c3cc2c1C | 22% | 12 | 5.4 | 7% | 6% | . | -1.5%
CC1=C(C(=O)Nc2ccc(C(=O)N3CCN(c4cccc(Cl)c4)CC3)cc2)SCCO1 | 30% | 1 | -1.7 | -5% | ? | -18 | -0.2%
Nc1nnc(SCC(=O)NN2C(=O)NC3(CCCCC3)C2=O)s1 | -50%[inhibitor] | 15 | 7.9 | 11% | 13% | 0 | 0.9%
CCC(C)Sc1cccc(-c2nc3ccccn3c2NCc2ccccc2)c1 (centres undefined) | ? | . | . | . | -22% | 5 | 3.9%
CC(=O)c1sc(NC(=O)CN2C(=O)CCC2=O)nc1C | ? | . | . | . | 3%[15.4 µM] | 1 | 1.2%
COc1ccc(/C=N/NC(=O)c2ccn[nH]2)cc1Cn1cc([N+](=O)[O-])cn1 | 15%[15.4 µM] | -5 | -0.3 | 14% | -7% | -12 | .
CCCCNC(=O)C1CC(=O)N(CCc2ccccc2)C1 (centres undefined) | -8% | -6 | 1.6 | 12% | 13% | . | -0.2%
CCCS(=O)(=O)NCCc1cc2ccc(OC)cc2[nH]c1=O | 7% | 1 | 1.2 | 10% | 0% | 0 | 3.6%
C[n+]1ccc(C(=O)Nc2ccccc2Cl)cc1 | ? | -6 | 3.1 | 4% | 8% | . | -0.7%
CS(=O)(=O)N(CC(=O)N1CCN(c2ccc(F)cc2)CC1)c1ccc(F)c(Cl)c1 | -17% | -18 | 3.6 | 19% | -19% | -8 | -1.8%
CCN(C(=O)COC(=O)/C=C/c1nc2ccccc2s1)c1c(N)n(Cc2ccccc2)c(=O)[nH]c1=O | 2% | . | . | . | -4% | -27 | -23%
